rRNA inh HTS – selective bacterial rRNA inhibition in E. coli. hit rate 1.6% among 350,000. AID 720706. E. coli WT GFP vs humanized-ribosome RFP mutants, fluorescence, 24 h; active compounds read low; DMSO median 0, no signal -100. GFP signal change (wild-type ribosome), % (test concentration not listed);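 active = significant combined selectivity score with lowered wild-type GFP, culture density cut under 30%, mutant RFP and density less affected; inactive = any of these conditions unmet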; note: one replicate is shown; some compounds called inactive have numbers as strong as hits
rRNA inh HTS OD600 – also measured in rRNA inh HTS; calls as there; OD600 change, %; measured here: OD600 growth;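 optical density of the mix in the first replicate; 0 = DMSO median and -100 = no signal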
rRNA inh HTS RFP – recorded beside rRNA inh HTS, whose call it bears; RFP signal change, %; measured here: RFP humanized mutant strains;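 first replicate; 0 = DMSO median and -100 = no signal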
Active calls of the source: *; & = joins results of further samples. The list is partial; count on the stated rates, not on these rows.

rRNA inh HTS,rRNA inh HTS OD600,rRNA inh HTS RFP,smiles
0,3,0.4,CCc1nc2ccc(C(=O)NCCCN3CCCC3=O)cn2c1N(CCC(C)C)CCN(C)C
-30,-30,-5.4,O=c1ccc(-c2nc3ccccc3n2C(CCc2ccccc2)c2nc3ccccc3[nH]2)c[nH]1 (stereo unspecified)
-7,-8,-3.4,Nc1cc(N)nc(SCc2ccccc2Cl)n1
9,20,1.9,CC(=O)OC[C@@H]1CN(Cc2ccccc2)C[C@H](n2cnc3c(NC(C)C)ncnc32)O1
-1,9,7.5,COC(=O)c1c(-c2ccc(OC)cc2)c2c(c3c4cc(F)ccc4n(S(=O)(=O)c4ccc(C)cc4)c13)C(=O)N(C)C2
6,7,1.1,COc1ccc2c3c([nH]c2c1)[C@@H](CO)N(C(=O)CN(C)C)CC31CCN(Cc2cncnc2)CC1
2,10,-2.3,CCC(=O)N1CC2(C1)[C@H](c1ccccc1)[C@@H](CO)N2CC1CC1
1,8,1.8,CCCCn1nc(C(=O)N(C)Cc2nc3ccccc3c(=O)[nH]2)c2ccccc2c1=O
1,2,-0.2,CNC(=O)C[C@@H]1CC[C@H]2[C@H](COc3ccc(NC(=O)NCc4ccccc4)cc3C(=O)N2C)O1
3,2,-2.6,CO[C@H]1CN(C)C(=O)c2ccc(NC(=O)C3CC3)cc2OC[C@H](C)N(C)C[C@H]1C
8,16,-1.8,CC1COC(=C2C(=O)OCC2C)C1 (stereo unspecified)
1,-3,-2.4,COc1cccc(NC(=O)N2C[C@H](O)COC[C@@H]3O[C@@H](CC(=O)NC4CCC4)CC[C@H]32)c1

4 entries from above, field by field.
> COc1cccc(NC(=O)N2C[C@H](O)COC[C@@H]3O[C@@H](CC(=O)NC4CCC4)CC[C@H]32)c1
  rRNA inh HTS = 1
  rRNA inh HTS OD600 = -3
  rRNA inh HTS RFP = -2.4

> CO[C@H]1CN(C)C(=O)c2ccc(NC(=O)C3CC3)cc2OC[C@H](C)N(C)C[C@H]1C
  rRNA inh HTS = 3
  rRNA inh HTS OD600 = 2
  rRNA inh HTS RFP = -2.6

> CCCCn1nc(C(=O)N(C)Cc2nc3ccccc3c(=O)[nH]2)c2ccccc2c1=O
  rRNA inh HTS = 1
  rRNA inh HTS OD600 = 8
  rRNA inh HTS RFP = 1.8

> O=c1ccc(-c2nc3ccccc3n2C(CCc2ccccc2)c2nc3ccccc3[nH]2)c[nH]1 (stereo unspecified)
  rRNA inh HTS = -30
  rRNA inh HTS OD600 = -30
  rRNA inh HTS RFP = -5.4

One compound at a time, as listed above.
`COC(=O)c1c(-c2ccc(OC)cc2)c2c(c3c4cc(F)ccc4n(S(=O)(=O)c4ccc(C)cc4)c13)C(=O)N(C)C2` is entered as rRNA inh HTS: -1; rRNA inh HTS OD600: 9; rRNA inh HTS RFP: 7.5
`CCc1nc2ccc(C(=O)NCCCN3CCCC3=O)cn2c1N(CCC(C)C)CCN(C)C` is entered as rRNA inh HTS: 0; rRNA inh HTS OD600: 3; rRNA inh HTS RFP: 0.4

(next part)
rRNA inh HTS,rRNA inh HTS OD600,rRNA inh HTS RFP,smiles
1,1,0.4,CN1[C@@H]2c3ccc(-c4ccc(F)cc4)c(=O)n3C[C@H]1[C@H](CO)[C@H]2C(=O)Nc1nccs1
-2,2,0.3,C[C@@H]1CN([C@@H](C)CO)C(=O)c2cc(C#Cc3cccnc3)cnc2O[C@H]1CN(C)Cc1ccccc1
-3,-19,-6.3,COC(=O)[C@@]12C[C@@H](CC(=O)NCc3cccs3)C(=O)N(Cc3ccco3)C1=CCC(C)(C)C2
-8,-55,36,Cc1ccc(S(=O)(=O)N[C@@H]2CC[C@@H](CC(=O)N3CCC(Cc4ccccc4)CC3)O[C@@H]2CO)cc1
-1,9,0.2,O=C(C[C@@H]1C=C[C@H](NS(=O)(=O)c2ccccc2)[C@@H](CO)O1)N1CCN(c2ccccc2)CC1
5,13,1.2,CC1=C(C(=O)N(C(C)C)C(C)C)CC(CC(=O)NC2CCCC2)C(=O)N1CCCN1CCCC1=O (stereo unspecified)
3&0,11&0,0.3&-0.2,C[C@H]1CN([C@@H](C)CO)C(=O)c2cc(Br)cnc2O[C@H]1CN(C)S(=O)(=O)c1ccccc1F
0,-4,0.6,COc1ccc(S(=O)(=O)N[C@@H]2CC[C@@H](CC(=O)NCCc3ccccc3)O[C@@H]2CO)cc1
-3,-4,0.6,CO[C@@H]1CN(C)C(=O)c2ccc(NS(=O)(=O)c3ccccc3)cc2OC[C@H](C)N(C(=O)NC(C)C)C[C@H]1C
-3,-12,0.2,COc1ccc(CN(C)C[C@@H]2Oc3ccc(NS(=O)(=O)c4ccccc4)cc3CC(=O)N([C@@H](C)CO)C[C@H]2C)cc1
-30,-51,17,COc1ccc(-n2nnnc2C(c2cccc(OC)c2OC)N2CCN(C/C=C/c3ccccc3)CC2)cc1 (stereo unspecified)
0,7,-0.7,CCC(=O)N1[C@@H]2c3cccc(=O)n3C[C@H]1[C@H](CO)[C@H]2C(=O)N1CCc2ccccc2C1
3,12,0.5,COc1ccc2c3c(n(C)c2c1)[C@H](CO)N(C(=O)Nc1ccccc1F)CC31CCN(C(=O)c2ccccc2F)CC1
2,5,-2.7,C[C@@H]1CN([C@H](C)CO)C(=O)c2cc(-c3ccncc3)cnc2O[C@H]1CN(C)C(=O)C1CCC1
0,8,-1.3,C[C@@H](NC(=O)C[C@@H]1C=C[C@@H](NC(=O)c2cccnc2)[C@H](CO)O1)c1ccccc1
-4,-9,19,COCCNC(=O)c1cc2c(c(-c3cccc(-c4cccc(F)c4)c3)n1)[C@H](CCO)N([S@@](=O)C(C)(C)C)C2
0,-1,-0.9,CCCNC(=O)N1[C@H](CO)[C@H](c2ccccc2)[C@H]1CNC(=O)C1CCCCC1
-2,1,-0.5,COc1ccccc1CN1[C@H](CO)[C@@H](c2ccccc2)C12CN(C(=O)c1ccccn1)C2
2,5,-1.9,Cc1noc(C)c1NC(=O)Nc1ccc2c(c1)CC(=O)N([C@@H](C)CO)C[C@@H](C)[C@H](CN(C)C(=O)Nc1c(C)noc1C)O2
12,11,2.1,O=C(O)c1ccc(CSc2nc3c(c(=O)[nH]2)CCC3)cc1
-62,-79,-17,O=C(C[C@H]1CC[C@H]2[C@@H](COC[C@@H](O)CN2C(=O)Cc2ccccc2)O1)NC1CCC1
-20,-55,20,OC[C@@H]1[C@@H](c2ccc(C#Cc3ccccc3)cc2)[C@@H]2CN(Cc3cncnc3)CCCCN12
-1,17,-0.2,OC[C@H]1[C@@H](c2ccc(-c3ccccc3F)cc2)[C@H]2CN(Cc3cncnc3)CCCCN21
-1,-1,-3.7,Cc1cccc(S(=O)(=O)N[C@@H]2CC[C@H](CCNC(=O)c3cnccn3)O[C@H]2CO)c1
-4,-7,0.9,CCC(=O)N(C)C[C@H]1[C@@H](c2ccc(-c3cccc(F)c3)cc2)[C@@H](CO)N1C(C)=O
15,20,2.3,Cc1ccc(CN2CCC2(C)C(=O)NC(C)C)cc1 (stereo unspecified)
8,18,-0.9,CCOC(=O)[C@]12CCC=C1N(Cc1ccco1)C(=O)[C@H](CC(=O)N1CCOCC1)C2
3,4,-0.3,Cc1noc(C)c1S(=O)(=O)Nc1ccc2c(c1)C(=O)N([C@@H](C)CO)C[C@@H](C)[C@@H](CN(C)CC1CCCCC1)OCCCC[C@H](C)O2
-1,-4,0.3,C[C@H](CO)N1C[C@H](C)[C@@H](CN(C)S(C)(=O)=O)Oc2ccc(NC(=O)Nc3ccc(C(F)(F)F)cc3)cc2CC1=O
0,-3,-0.5,CC1(C)CC2(OC2c2ccccc2)C(=O)c2ccccc21 (stereo unspecified)
2,7,-0.5,CNC[C@@H]1Oc2ccc(NC(=O)Nc3ccccc3)cc2C(=O)N([C@H](C)CO)C[C@@H]1C
3,6,-4.0,CC(C)C#Cc1cnc2c(c1)C(=O)N([C@@H](C)CO)C[C@H](C)[C@@H](CN(C)C(=O)c1cccnc1)O2
2,-4,2.8,C[C@H]1CN([C@@H](C)CO)C(=O)c2cc(NC(=O)Cc3cn(C)c4ccccc34)ccc2O[C@H]1CN(C)Cc1ccccc1
1,3,-6.8,CC(C)NC(=O)Nc1ccc2c(c1)C(=O)N([C@H](C)CO)C[C@H](C)[C@@H](CN(C)S(=O)(=O)c1ccc(F)cc1)OCCCC[C@@H](C)O2
3,7,-0.8,COc1ccc(S(=O)(=O)Nc2ccc3c(c2)CC(=O)N([C@@H](C)CO)C[C@H](C)[C@@H](CN(C)CC2CC2)O3)cc1
0,4,-0.5,COC(=O)C[C@H]1CC[C@H]2[C@H](COc3ccc(NS(=O)(=O)c4ccc(C)cc4)cc3C(=O)N2C)O1
0,-7,-1.9,C[C@H]1CN([C@@H](C)CO)C(=O)c2cccc(NS(=O)(=O)c3cccs3)c2O[C@@H]1CN(C)C(=O)Nc1ccccc1
-4,-2,-1.3,C[C@H](NC(=O)[C@@H]1[C@@H](CO)[C@@H]2Cn3c(ccc(C4=CCCC4)c3=O)[C@H]1N2C(=O)C1CC1)c1ccccc1
-2,-1,0.4,C[C@@H]1CN([C@@H](C)CO)C(=O)c2cc(C3=CCCCC3)cnc2O[C@H]1CN(C)Cc1ccccc1F
-1,0,-1.1,C[C@@H]1CN([C@@H](C)CO)C(=O)c2cc(NC(=O)CCN3CCOCC3)ccc2O[C@@H]1CN(C)S(=O)(=O)c1ccc(Cl)cc1
-1,-2,-1.3,CO[C@H]1CN(C)C(=O)c2cc(NC(=O)C3CC3)ccc2OC[C@H](C)N(C(=O)Cc2ccccn2)C[C@@H]1C
15,13,0.4,COCCNc1nc(Oc2cccc(NC(C)=O)c2)c2sc(-c3ccccc3)cc2n1
4,8,1.5,CC(C)NC(=O)Nc1ccc2c(c1)C(=O)N([C@@H](C)CO)C[C@H](C)[C@H](CN(C)C(=O)NC(C)C)O2
-2,-2,1.0,C[C@@H]1CCCCO[C@@H](CN(C)Cc2ccc(C(=O)Nc3ccccc3N)cc2)[C@@H](C)CN([C@H](C)CO)C(=O)c2cc(NS(=O)(=O)c3ccccc3)ccc2O1
3,9,0.5,Cc1noc(C)c1NC(=O)Nc1cccc2c1O[C@H](CN(C)C)[C@@H](C)CN([C@@H](C)CO)C2=O
-1,-1,1.2,CC1(Oc2cccc(F)c2)CCN(Cc2csc3ccccc23)C1 (stereo unspecified)
9,7,-1.9,CNC[C@@H]1OCCCC[C@@H](C)Oc2ccc(N)cc2C(=O)N([C@@H](C)CO)C[C@H]1C
-1,5,-1.1,C[C@@H](NC(=O)C[C@@H]1C[C@@H]2c3cc(NS(C)(=O)=O)ccc3O[C@@H]2[C@@H](CO)O1)c1ccccc1
-1,7,-4.2,CO[C@H]1CN(C)C(=O)c2ccc(NC(C)=O)cc2OC[C@@H](C)N(C(=O)CN(C)C)C[C@@H]1C
4,15,-5.2,C[C@H]1CN([C@@H](C)CO)C(=O)c2cc(Br)cnc2O[C@@H]1CN(C)C(=O)NC1CCCC1
14,12,3.7,CCOC1=C2[C@H](c3ccccc3)N(S(=O)(=O)c3ccccc3)C[C@H]2n2c(=O)n(-c3ccccc3)c(=O)n2C1
1,0,-1.1,CCN1[C@@H]2c3ccc(-c4ccncc4)c(=O)n3C[C@H]1[C@H](CO)[C@H]2C(=O)Nc1ccccc1
0,-6,0.7,COc1ccc2c3c(n(C)c2c1)[C@@H](CO)N(C(=O)C1CCCCC1)CC31CCN(C(=O)Nc2cccc(F)c2)CC1
2,-5,0.3,C[C@H](CO)N1C[C@H](C)[C@@H](CN(C)C(=O)Nc2ccc(F)cc2)Oc2c(NS(=O)(=O)c3ccccc3)cccc2C1=O
1,17,2.0,COc1cccc(-c2ccc([C@H]3[C@H]4CN(S(=O)(=O)c5cn(C)cn5)CCCCN4[C@H]3CO)cc2)c1
-6,1,-0.5,CC1(C)CN(CCc2ccccc2)C(=O)[C@H]1CC(=O)Nc1ccc(Br)cc1
-9,-10,2.4,COC(=O)[C@]12CCCCC=C1N(Cc1ccccc1)C(=O)[C@H](CC(=O)NCc1ccc(C)o1)C2
-3,-18,-1.6,C=CCNc1nc2cc(-c3ccccc3C)sc2c(=O)n1C
30,13,4.7,O=C(NCc1ccccc1)C(c1cccc2ccccc12)n1c(=O)c(-c2ccccc2)nc2ccccc21 (stereo unspecified)
-10,-23,-0.3,C[C@H](CO)N1C[C@H](C)[C@@H](CN(C)C(=O)C2CCC2)Oc2cc(-c3ccccc3)ccc2S1(=O)=O

Continued.
rRNA inh HTS,rRNA inh HTS OD600,rRNA inh HTS RFP,smiles
5,6,0.1,CO[C@@H]1CN(C)C(=O)c2cc(NS(=O)(=O)Cc3ccccc3)ccc2OC[C@@H](C)NC[C@@H]1C
-2,3,0.0,C[C@H]1CN([C@@H](C)CO)C(=O)Cc2cc(NC(=O)Cn3cnnn3)ccc2O[C@@H]1CN(C)C(=O)Nc1ccc(C(F)(F)F)cc1
1,-2,-0.3,O=C(N[C@H]1CC[C@@H](CCNS(=O)(=O)c2ccc(F)cc2)O[C@H]1CO)C1CC1
5,11,-3.8,Cc1noc(C)c1NC(=O)Nc1ccc2c(c1)C(=O)N([C@H](C)CO)C[C@@H](C)[C@H](CN(C)C(=O)Nc1cccc3ccccc13)O2
11&-4,9&1,1.5&2.6,COc1ccc(NC(=O)N(C)C[C@@H]2OCc3cnnn3CCCC(=O)N([C@H](C)CO)C[C@H]2C)cc1
2,0,2.7,CS(=O)(=O)N1CC(=O)N2[C@H](CO)[C@@H](c3ccc(C#Cc4cccc(F)c4)cc3)[C@H]2C1
2,7,-2.4,O=C1CCCCn2cc(nn2)COC[C@H](Cc2ccccc2)N1

Assay outcomes deposited in PubChem by Broad Institute.
